Compound activity as filed in PubChem.
FPR binder = ligands of human FPR, also counter-screen for FPRL1 ligands. P21462. FPR-expressing cells, fluorescent ligand binding, flow cytometry. inhibition, %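 (tested at 6.7 µM)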. 0.74% of 24,000 active. AID 440;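 note: 0% = buffer wells and 100% = receptor blocker peptide wells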
FPRL1 ligand = human FPRL1 ligand, with FPR counter-screen; FPRL1-expressing cells, fluorescent ligand binding inhibition, flow cytometry; P25090; 0.3% of 24,000 active; inhibition, %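 (tested at 6.7 µM)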;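 note: 0% = buffer alone and 100% = receptor blocker peptide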
An asterisk follows results filed as active; . = not tested or not shown.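 Rule for the calls: active = mean above 30%; inconclusive = self-fluorescent; inactive = the rest.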 The list is partial (hit frequency here may not be typical).

SMILES	FPR binder	FPRL1 ligand
CN1CCN(c2nc(-c3ccccc3)cc(C(F)(F)F)n2)CC1	-8.6	.
Cc1cc(=O)n2[nH]cc(C(=O)O)c2n1	.	-0.5
CCC(=O)N1CCc2cc(S(=O)(=O)NC(C(=O)Nc3cccc(C)n3)C(C)C)ccc21 (stereo not given)	.	1.7

One compound at a time, from the list above. Order of values: FPR binder | FPRL1 ligand
`Cc1cc(=O)n2[nH]cc(C(=O)O)c2n1` as listed: . | -0.5
`CN1CCN(c2nc(-c3ccccc3)cc(C(F)(F)F)n2)CC1` as listed: -8.6 | .
